Assay outcomes as filed in PubChem BioAssay.
ALR H2O2 inh: human ALR oxidase inhibition via reduced H2O2 | P55789 | purified ALR, DTT oxidation, H2O2 HRP-luminol luminescence | inhibition, % (test concentration not listed) | 290,000 compounds, 3.8% hits;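 active means mean and each replicate at 75% or more; inconclusive means only one of the two met; inactive means neither met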;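 further: stock transfer was 7.5 nL into about 7.5 µL; 0% = neutral wells and 100% = wells with inactivated enzyme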
Target sequence (P55789 whole entry, looked up): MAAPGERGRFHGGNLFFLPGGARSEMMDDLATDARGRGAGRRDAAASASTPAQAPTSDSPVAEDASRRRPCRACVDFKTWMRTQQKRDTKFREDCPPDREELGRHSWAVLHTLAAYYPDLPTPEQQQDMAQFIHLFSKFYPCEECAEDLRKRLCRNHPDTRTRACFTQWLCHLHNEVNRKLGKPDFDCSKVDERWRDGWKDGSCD
Calb FLC: C. albicans growth modulation with fluconazole. C. albicans CaCi-2 (fluconazole-resistant clinical isolate) + fluconazole, Alamar Blue growth, 48 h. growth inhibition, % (concentration not given with the values). 300,000 compounds, 0.57% hits;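 active means most replicates above 75%; inconclusive means exactly half above 75%; inactive means most below 75%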;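 further: all wells also contain fluconazole at 8 µg/ml as a sub-toxic cotreatment; 0% = median of DMSO wells and 100% = median of geldanamycin control wells; wells of about 8 µL received 7.5 nL stock; the first replicate is given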
T cruzi inh: T. cruzi replication inhibition; T. cruzi beta-gal in NIH3T3, luminescence, 90 h; inhibition, % (concentration not given with the values); 300,000 compounds, 1.4% hits; AID 1885;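 active means mean inhibition across valid replicates above about 55%, limit read from the data; inconclusive means mean below that limit but half or more replicates reach it; inactive means mean below it, under half of replicates reach it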;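 further: signal also drops with host cell toxicity which is not excluded here; 0% = plate median of DMSO wells and 100% = zero luminescence signal; higher percent means less beta-gal luminescence so fewer parasites; stock transfer was 50 nL into about 50 µL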
Beta apoptosis: beta cell apoptosis inhibition | INS-1E cytokine-induced death, ATP luminescence, 48 h; percent of positive-control rescue, neutral wells zero | protection from apoptosis, % (concentration not given with the values) | 300,000 compounds, 0.8% hits | AID 435005;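 active means all replicates at 75% or more, or half of them and the mean; inconclusive means half reach 75% but not the mean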;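 further: 0% = cytokine-treated negative control wells and 100% = positive control rescue; higher means more ATP so stronger rescue from cytokine killing; wells of about 40 µL received 100 nL stock; the first replicate is given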
AF4-AF9 inh: inhibitors of human MLL-AF4/AF9 interaction | inhibition, % at 10 µM | AlphaScreen, biotin-AF4 peptide binding to FLAG-AF9 | 350,000 compounds, 0.47% hits | P42568;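 active means every replicate reaching a set inhibition limit, whatever the replicate mean, cut at about 25% in these data; inconclusive means mean inhibition reaches that limit but some replicates miss it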;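 further: 0% = plate neutral control median and 100% = total signal loss; the record names both 10 and 1 µM as test concentration; the first replicate is given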
Target sequence (P42568 whole entry, looked up): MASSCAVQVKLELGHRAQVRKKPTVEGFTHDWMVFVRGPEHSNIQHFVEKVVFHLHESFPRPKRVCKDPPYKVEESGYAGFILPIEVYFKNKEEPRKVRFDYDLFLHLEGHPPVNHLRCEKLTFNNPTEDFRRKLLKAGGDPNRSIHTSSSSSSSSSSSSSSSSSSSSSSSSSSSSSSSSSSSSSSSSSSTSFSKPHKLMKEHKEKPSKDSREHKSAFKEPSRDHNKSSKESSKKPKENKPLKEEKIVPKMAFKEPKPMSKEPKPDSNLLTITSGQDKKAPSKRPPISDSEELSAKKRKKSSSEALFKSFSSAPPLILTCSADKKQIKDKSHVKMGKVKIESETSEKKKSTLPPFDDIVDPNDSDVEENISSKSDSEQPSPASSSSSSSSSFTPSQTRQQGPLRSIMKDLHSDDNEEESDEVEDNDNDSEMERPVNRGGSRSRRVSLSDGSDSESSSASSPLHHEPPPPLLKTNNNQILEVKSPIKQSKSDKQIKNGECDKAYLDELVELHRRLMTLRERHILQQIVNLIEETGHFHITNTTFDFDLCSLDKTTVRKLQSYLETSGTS
Ecoli rRNA inh: inhibits bacterial ribosomal RNA function over humanized ribosomes; GFP signal change (wild-type ribosome), % (test concentration not listed); AID 720706; 350,000 compounds, 1.6% hits; E. coli WT GFP vs humanized-ribosome RFP mutants, fluorescence, 24 h; active compounds read low; DMSO median 0, no signal -100;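 active means significant combined selectivity score with lowered wild-type GFP, culture density cut under 30%, mutant RFP and density less affected; inactive means any of these conditions unmet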; further: one replicate is shown; some compounds called inactive have numbers as strong as hits
FGF22 binding: FGF22 (human) thermal shift binding. AID 651658. 340,000 compounds, 1.5% hits. calls only at 9.99 µM. recombinant FGF22 thermal shift, SYPRO orange fluorescence; percent of sucrose octasulfate shift, DMSO zero;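 active means melting point raised past a set limit in the mean and every replicate; inconclusive means no clear call; three in four hits are not shown here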
Target sequence (Q9HCT0 whole entry, looked up): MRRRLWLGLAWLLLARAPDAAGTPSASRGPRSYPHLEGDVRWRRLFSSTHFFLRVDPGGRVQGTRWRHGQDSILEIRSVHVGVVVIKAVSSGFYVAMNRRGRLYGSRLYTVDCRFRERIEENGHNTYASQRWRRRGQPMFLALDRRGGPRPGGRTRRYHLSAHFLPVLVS
RanGTP-Impb inh: inhibitors of RanGTP-importin-beta interaction, primary screen, biochemical, FRET, CFP-Ran, YFP-importin-beta, homogeneous | 300,000 compounds, 1.1% hits | cell-free CFP-Ran/YFP-importin-beta FRET ratio | AID 2216 | inhibition, % (no concentration beside the values);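 active means most replicates above 15%; inconclusive means exactly half above 15%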;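 further: 0% = DMSO wells and 100% = Ran loaded with GDP instead of GTP; wells of about 40 µL received 100 nL stock; the first replicate is given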
Ecoli rRNA inh OD600: second read-out of Ecoli rRNA inh, no call of its own (marks repeat the call); OD600 change, %; measured here: OD600 growth;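 optical density of the mix in the first replicate; 0 = DMSO median and -100 = no signal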
Ecoli rRNA inh RFP: recorded beside Ecoli rRNA inh, whose call it bears; RFP signal change, %; measured here: RFP humanized mutant strains;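 first replicate; 0 = DMSO median and -100 = no signal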
An asterisk follows results filed as active; i = inactive; ? = inconclusive; / = no result given; & = joins results of further samples. An excerpt, so the mix of outcomes need not match the whole.

1	S=C(NCc1ccco1)Nc1ccc(Oc2ccccc2)cc1
2	Nc1nc(Cl)cc(-c2ccccc2)n1
3	Cc1cc2c(Nc3ccc(C(=O)O)cc3)ncnc2s1
4	CSc1nc2c(C)c(C)c(C)c(C)c2[nH]1
5	CCCCC(Sc1nc(C)c(Cc2ccccc2)c(=O)[nH]1)C(=O)O (stereo not drawn)
6	N#Cc1ccc(-c2ccc(OCC(=O)NCCCN3CCCC3=O)cc2)cc1
7	COc1ccc(C(=O)N2CCCCCC2)cc1OC1CCN(C(C)=O)CC1
8	COc1cc2c(C(=O)NCc3ccc(C)o3)cn(CC(C)C)c(=O)c2cc1OC

Screen / compound no.	1	2	3	4	5	6	7	8
Ecoli rRNA inh OD600	-69	1	-4	6	-1	-11	5	/
T cruzi inh	17	-4	-22	-11	-12	-5	-16	3
Calb FLC	-4	-22	2	-2	0	-66	6	4
Beta apoptosis	2	-1	-7	/	-5	-13	-3	1
FGF22 binding	i	i	i	i	i	i	i	/
Ecoli rRNA inh RFP	1.7	-0.1	-0.9	-1.5	0.5	-7.7	-0.4	/
ALR H2O2 inh	?	1	-4	-9	/	99*	-6	13
RanGTP-Impb inh	-0.1	0.1	3.0	2.1	?	0.9	0.2	-6.8
AF4-AF9 inh	4.7	-11	4.3	5.2	-0.4	0.3	-1.0	/
Ecoli rRNA inh	-43	-4	-6	7	-5	-13	8	/

9	COc1ccccc1/C=C/C(=O)OCC(=O)NC1CCCCCC1
10	C/C(=N\NC(=O)c1c(C)nc2ccccn12)c1cccc([N+](=O)[O-])c1
11	O=C(CSc1ccc2ccccc2n1)N1CCC(c2noc3ccc(F)cc23)CC1
12	O=C(Nc1ccc2nsnc2c1)N1CCCCCC1
13	COc1ccc(/C=N/OC/C(O)=C(\C#N)c2nc3ccccc3[nH]2)cc1
14	CCC(=O)NCc1cc(-c2nn(C)c(=O)c3ccccc23)ccc1OC
15	Cn1c(=O)c2c(nc(Br)n2Cc2nnc(N)s2)n(C)c1=O
16	CCn1c2ccccc2c2cc(NC(=O)c3cc(OC)cc(OC)c3)ccc21

Screen / compound no.	9	10	11	12	13	14	15	16
Ecoli rRNA inh OD600	1	16	/	/	/	-5	1	1
T cruzi inh	/	-16	28	-5	-5	-4	-12	39
Calb FLC	/	-1	7	3	25	-1	3	-11
Beta apoptosis	-4	-1	-1	6	-3	-1	-2	70
FGF22 binding	i	i	/	/	/	i	i	i
Ecoli rRNA inh RFP	-1.4	-0.2	/	/	/	-0.1	3.1	6.4
ALR H2O2 inh	/	-7	-5	-16	-28	2	/	-16
RanGTP-Impb inh	/	0.8	-2.2	4.2	-0.7	-1.2	-1.0	1.5
AF4-AF9 inh	0.3	0.4	/	/	/	-0.9	-2.6	1.9
Ecoli rRNA inh	-1	10	/	/	/	-4	4	2

17	Cc1ccc2nc(SCC(=O)Nc3ccc4sc(C)nc4c3)c(C#N)cc2c1
18	COc1ccc(C2SCC(=O)N2CCc2ccc(OC)c(OC)c2)cc1 (stereo not drawn)
19	Cn1c(-c2csc(-c3cccc(C(F)(F)F)c3)n2)n[nH]c1=S
20	CCc1c(C)nc2ncnn2c1NCc1cccs1
21	Cc1c(NS(=O)(=O)c2cc(Br)cc3c2N(C(=O)C2CC2)CC3)c(=O)n(-c2ccccc2)n1C
22	COc1cccc(Nc2nc(NCC3CCCO3)c3ccccc3n2)c1 (stereo not drawn)
23	COc1ccc(N2CCN(C(=O)CN(Cc3ccc(Cl)cc3)S(C)(=O)=O)CC2)cc1
24	CC1=CC(c2ccccc2)n2nc(N3C(=O)c4ccccc4C3=O)nc2N1 (stereo not drawn)

Screen / compound no.	17	18	19	20	21	22	23	24
Ecoli rRNA inh OD600	/	-10	11	/	/	/	/	/
T cruzi inh	15	-9	-6	-21	-3	60*	-5	-9
Calb FLC	-4	-11	6	2	-3	48	-3	-3
Beta apoptosis	1	24	1	12	2	42	1	-8
FGF22 binding	/	i	i	/	/	/	/	/
Ecoli rRNA inh RFP	/	-5.8	4.3	/	/	/	/	/
ALR H2O2 inh	-2	-5	/	-6	-4	-1	30	19
RanGTP-Impb inh	-1.2	?	-1.7	-0.4	-0.1	1.3	3.1	-1.3
AF4-AF9 inh	/	1.3	-4.0	/	/	/	/	/
Ecoli rRNA inh	/	-7	3	/	/	/	/	/

25	Cc1cccc(C)c1NC(=O)C1CCCN1C(=O)OC(C)(C)C (stereo not drawn)
26	COc1ccc(Nc2nc(N)c([N+](=O)[O-])c(N3CCOCC3)n2)cc1
27	CCNC(=O)Cc1ccc(NS(=O)(=O)c2ccc(F)cc2)cc1
28	O=C(CNC(=O)c1ccccc1)Oc1cccc(Cl)c1
29	Cc1sc2ncnc(Sc3ccccc3C(=O)O)c2c1C
30	Cc1sc(NC(=S)NC(=O)c2ccco2)c(C#N)c1C
31	Cc1csc(-c2cnn(-c3ccccc3)c2NC(=O)c2cccc(C(F)(F)F)c2)n1
32	O=C(Nc1ccncc1)c1ccc2c(c1)S(=O)(=O)c1ccccc1C2=O

Screen / compound no.	25	26	27	28	29	30	31	32
Ecoli rRNA inh OD600	-2	1.1*	/	7	-3.1*	7	/	7
T cruzi inh	9	-3	-8	-4	-3	10	32	2
Calb FLC	-5	1	9	-7	-1	-7	-3	-18
Beta apoptosis	2	-6	2	-6	-6	0	2	-5
FGF22 binding	i	i	/	i	i	i	/	i
Ecoli rRNA inh RFP	-2.9	1.1*	/	1.9	3.1*	4.7	/	-5.2
ALR H2O2 inh	-10	1	-2	-1	-15	/	-5	10
RanGTP-Impb inh	-0.8	0.0	2.3	2.4	9.4	-0.3	-3.5	4.6
AF4-AF9 inh	-1.9	7.2	/	-0.3	-2.2	-7.5	/	0.7
Ecoli rRNA inh	6	-28*	/	5	-24*	-3	/	-4

33	O=C(O)C1C2C=CC(C2)C1C(=O)NCc1ccco1 (stereo not drawn)
34	C=CCCCCCCCCc1nc(=S)[nH][nH]1
35	COc1ccc(OC)c(CN2CCN(Cc3cc(=O)oc4cc(O)ccc34)CC2)c1
36	O=C(C1CCCN(Cc2ccc(Br)cc2)C1)N1CCCCC1 (stereo not drawn)
37	CCN(CC)C(=O)Cn1cc(C(=O)C(=O)NCc2ccccn2)c2ccccc21
38	C[C@H](CO)N1C[C@H](C)[C@@H](CN(C)C(=O)Nc2ccc3c(c2)OCO3)Oc2c(NS(=O)(=O)c3cn(C)cn3)cccc2C1=O
39	O=C(COC(=O)c1cc(S(=O)(=O)N2CCCC2)ccc1O)Nc1ccccc1Br
40	N#CC1=C(N)C(C#N)(C#N)[C@H](c2ccoc2)[C@H]2CN(Cc3ccccc3)CC=C12

Screen / compound no.	33	34	35	36	37	38	39	40
Ecoli rRNA inh OD600	-1	/	-7	0	-3	11&-6	19	/
T cruzi inh	1	31	19	21	-19	/	/	20
Calb FLC	18	7	0	-4	-12	/	/	5
Beta apoptosis	4	-17	7	-6	-7	1	0	2
FGF22 binding	i	/	i	i	i	i	i	/
Ecoli rRNA inh RFP	3.6	/	5.0	-3.9	1.1	-0.2&-6.5	-1.9	/
ALR H2O2 inh	/	34	13	90*	3	-9	-7	-19
RanGTP-Impb inh	6.0	-1.6	61*	-2.7	4.8	/	/	107*
AF4-AF9 inh	-3.0	/	2.1	-3.0	-4.9	-1.2&-2.0	-2.3	/
Ecoli rRNA inh	9	/	-3	-6	-1	5&-1	17	/

41	CCOC(=O)c1c(C)c(-c2ccccc2)n(CC(=O)N2CCCC2)c1C
42	Cc1nnc2ccc(-c3ccc(NC(=O)c4cccnc4Cl)cc3)nn12
43	O=C(Cn1cnc2ccccc2c1=O)c1ccc2c(c1)OCCO2
44	Cc1ccc(Cl)cc1NC(=O)CSc1sc2c(O)cc(=O)[nH]c2c1C#N
45	CC(=O)c1ccc(OC(=O)/C=C/c2ccccc2)cc1
46	CCOP(=O)(OCC)/C(=N/OC(=O)c1ccccc1C)C(N)=O
47	CC(=O)Nc1nnc(SCC(=O)N2C(C)CCCC2C)s1 (stereo not drawn)
48	Cc1cc(-c2nc3ccccc3c(=O)o2)ccc1[N+](=O)[O-]
49	COc1ccc(C(CNC(=O)CNS(=O)(=O)c2ccc(NC(C)=O)cc2)N2CCOCC2)cc1 (stereo not drawn)

Screen / compound no.	41	42	43	44	45	46	47	48	49
Ecoli rRNA inh OD600	-18	-2	/	10	6	/	9	4	9
T cruzi inh	13	1	-4	-4	-15	-9	-12	-4	9
Calb FLC	-3	-2	3	-8	-10	6	2	23	-1
Beta apoptosis	0	0	-1	-4	-4	-22	-2	8	-7
FGF22 binding	i	i	/	/	i	/	i	i	/
Ecoli rRNA inh RFP	-4.2	-2.2	/	0.4	0.6	/	-3.4	-2.0	-2.5
ALR H2O2 inh	/	-18	-5	92*	7	65	2	56	4
RanGTP-Impb inh	-0.9	-1.4	-2.0	0.4	-0.6	4.7	-0.3	1.3	0.4
AF4-AF9 inh	-4.4	-11	/	3.1	-4.2	/	4.0	1.0	-1.4
Ecoli rRNA inh	-1	1	/	7	3	/	4	0	2

Filtered by structure: those above containing an NH in an aromatic ring.
4	CSc1nc2c(C)c(C)c(C)c(C)c2[nH]1
5	CCCCC(Sc1nc(C)c(Cc2ccccc2)c(=O)[nH]1)C(=O)O (stereo not drawn)
13	COc1ccc(/C=N/OC/C(O)=C(\C#N)c2nc3ccccc3[nH]2)cc1
19	Cn1c(-c2csc(-c3cccc(C(F)(F)F)c3)n2)n[nH]c1=S
34	C=CCCCCCCCCc1nc(=S)[nH][nH]1
44	Cc1ccc(Cl)cc1NC(=O)CSc1sc2c(O)cc(=O)[nH]c2c1C#N

Screen / compound no.	4	5	13	19	34	44
Ecoli rRNA inh OD600	6	-1	/	11	/	10
T cruzi inh	-11	-12	-5	-6	31	-4
Calb FLC	-2	0	25	6	7	-8
Beta apoptosis	/	-5	-3	1	-17	-4
FGF22 binding	i	i	/	i	/	/
Ecoli rRNA inh RFP	-1.5	0.5	/	4.3	/	0.4
ALR H2O2 inh	-9	/	-28	/	34	92*
RanGTP-Impb inh	2.1	?	-0.7	-1.7	-1.6	0.4
AF4-AF9 inh	5.2	-0.4	/	-4.0	/	3.1
Ecoli rRNA inh	7	-5	/	3	/	7

Copied from the entries so far, two compounds:
41	CCOC(=O)c1c(C)c(-c2ccccc2)n(CC(=O)N2CCCC2)c1C
42	Cc1nnc2ccc(-c3ccc(NC(=O)c4cccnc4Cl)cc3)nn12

Screen / compound no.	41	42
Ecoli rRNA inh OD600	-18	-2
T cruzi inh	13	1
Calb FLC	-3	-2
Beta apoptosis	0	0
FGF22 binding	i	i
Ecoli rRNA inh RFP	-4.2	-2.2
ALR H2O2 inh	/	-18
RanGTP-Impb inh	-0.9	-1.4
AF4-AF9 inh	-4.4	-11
Ecoli rRNA inh	-1	1
